Screening results as filed in PubChem.
VACV E9 pol inh = blocks vaccinia virus processive DNA synthesis | in vitro processive DNA synthesis, absorbance read-out; hits give low values; some inactives read as strong as hits | normalized absorbance, % (no concentration beside the values) | hit rate 0.94% among 46,000;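 active means replicate mean up to 90% and picked by the depositor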;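 further: 100% = median of the test wells of a plate; 100 nL library stock went into each well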
* marks the source's active call; other numbers are inactive results; & = joins results of further samples.

Molecule | VACV E9 pol inh
Cc1sc(C)c(CNc2ccccc2)c1CNc1ccccc1 | 100
Cc1ccc(CNC(=O)c2ccc(Cl)cc2)c(=S)[nH]1 | 100
O=C(NCCO)c1c(Cl)nc2ccccn12 | 93
Fc1ccc(C(CCCN2CCN3CCCCCC3C2)c2ccc(F)cc2)cc1 (centres undefined) | 98
CC(CCc1ccccc1)NC(=O)C1CCN(S(=O)(=O)N2CCOCC2)CC1 (centres undefined) | 102
Oc1ccc(N2Cc3ccccc3C2)cc1 | 100
O=C(NCCCc1ccccc1)N1c2ccccc2Sc2ccccc21 | 100
CCSc1nc2ccccc2n1CC(=O)O | 101
CC(C)c1ccc(S(=O)(=O)C2C(=O)N(C)C3(C)CC2c2ccccc2O3)cc1 (centres undefined) | 108
COc1ccc2c(c1)NC(=O)CC(c1ccccc1)=N2 | 114
O=C(O)C(c1ccccc1)N1C(=O)/C(=C/c2ccncc2)SC1=S (centres undefined) | 100
Cc1ccc(N2CCN(C(=O)c3ccc(Br)cc3)CC2)cc1C | 96
CC(C)c1cc(=O)n2c([nH]c3ccccc32)c1C#N | 99
O=C(Nc1cccc(Cl)c1)C1=CC(=O)N2CCCN=C2S1 | 105
Cc1ccccc1-n1c(=O)c2ccccc2n2nnnc12 | 103
CCCCN(C)C(=O)c1nc(-c2ccc(C)cc2)n2c1CCCCC2 | 107
N=c1c(C(N)=S)cnc2ccccn12 | 101
NC(CC(=O)O)c1cccc(O)c1 (centres undefined) | 100
O=c1oc2ccc(NS(=O)(=O)c3ccccc3)cc2s1 | 101
C=CCOc1ccc(/C=C2\Oc3ccc(C(=O)OC)cc3C2=O)cc1 | 98
CCOC(=O)c1ccc2ncc3c(-c4ccccc4)nn(-c4ccccc4)c3c2c1 | 93
O=C(CC12CC3CC(CC(C3)C1)C2)N1CCCC1 | 100
CC(=O)n1c2ccccc2c2nc(-c3ccncc3)sc21 | 91
Cn1c(=NC(=O)/C=C\c2ccccc2)sc2ccccc21 | 105
O=c1c(-c2ccc(Br)cc2)coc2cc(O)ccc12 | 90
COc1ccc(-c2cc(C(F)(F)F)c(C#N)c(SCCCn3c(=O)[nH]c4ccccc43)n2)cc1 | 100
Oc1ccc2ccccc2c1C=Nc1cccn2cc(-c3ccccc3)nc12 | 101
O=C(c1ccc(Cl)nc1)N1CCC(Cc2ccccc2)CC1 | 104
CC(=O)N(C)c1ccc(NC(=O)/C=C/c2ccco2)cc1 | 99
O=C1NC(=O)C(Cc2ccccc2)S1 (centres undefined) | 79*
N#CC(c1c[nH]c2ccccc12)N1CCCCCC1 (centres undefined) | 99
COc1cccc(NC(=O)c2sc3ncnc(N4CCc5ccccc5C4)c3c2C)c1 | 108
CCCCN1C(=O)N(c2nnc(C(C)(C)C)s2)C(=O)C1c1ccc(Cl)c(Cl)c1 (centres undefined) | 91
O=C(NCC1CCCO1)c1cc(-c2cccs2)nc2ccccc12 (centres undefined) | 104
Cc1oc(C(C)(C)C)cc1-c1cc(N)n(-c2ccc(S(N)(=O)=O)cc2)n1 | 93
C[S+](C)c1c(-c2ccccc2)nc2ccccn12 | 101
N#CCC(=O)Nc1ccc(F)cc1F | 100
Cc1sc2nc(SCC(=O)NC3CCCCC3)nc(N)c2c1C | 99
CC(C)C(=O)Nc1cccc(-c2nc3ncccc3o2)c1 | 100
COc1ccccc1C(=O)N(C(C)C)C(C)C | 99
O=C(Nc1cccc2ccccc12)c1ccc(C(F)(F)F)cc1 | 99
COc1cc2ccccc2cc1C(=O)OCC(=O)c1ccc(Cl)cc1 | 101
CCCCNC(=O)NS(=O)(=O)c1ccc(C)cc1 | 101&100
CCOc1ccc(NC(=O)CCC(=O)O)cc1 | 93
COc1cc2c(C(=O)N3CCN(c4ccccc4)CC3)cn(CC(C)C)c(=O)c2cc1OC | 96
O=C(O)Cn1c2ccc(Br)cc2c2nc3ccccc3nc21 | 92
O=C(COc1ccc2c3c(c(=O)oc2c1)CCC3)N1CCCC1 | 104
CC(O)c1ccc2ccccc2c1 (centres undefined) | 106
CCOC(=O)c1ccc(C(=S)N2CCCC2)cc1 | 85
CCc1ccc(S(=O)(=O)NCc2cn3ccccc3n2)s1 | 94
COc1ccccc1-c1coc2cc(OCc3ccc(C)cc3)ccc2c1=O | 100
COC(=O)C1C(=O)c2cc(OC)c(OC)cc2C1c1ccccc1 (centres undefined) | 99
CC(=O)Nc1c(O)nc(SCC(=O)N2CCOCC2)[nH]c1=O | 94
Cc1ccc(NC(=O)C2CC(=O)N(CCc3ccc(Cl)cc3)C2)cc1 (centres undefined) | 108
CCc1cc(-c2[nH]ncc2-c2nc(C)cs2)c(O)cc1OC(C)C(=O)NN (centres undefined) | 101
CC(C)N1C(=O)/C(=C/c2cccc(Br)c2)SC1=S | 100
COc1cccc(OC)c1C(=O)N1CCN(C(=O)COc2ccc(Cl)cc2)CC1 | 100
COc1cc(N=Cc2cccs2)c(OC)cc1Cl | 80
O=C(CCS(=O)(=O)c1ccc(Br)s1)NC(c1ccccc1)c1ccccc1 | 102
FC(F)(F)c1nc(NCCc2ccccc2)nc2c1CCCCC2 | 108

(list continues)
Molecule | VACV E9 pol inh
CC1=C(C(N)=O)C(c2ccccc2F)n2ncnc2N1 (centres undefined) | 82
O=C(/C=C\c1ccc2c(c1)OCO2)OCn1nnc2ccccc2c1=O | 106
CNC(=O)c1sc2nc(-c3ccccc3)cn2c1C | 94
C=CCc1c(C)nc(OCC(=O)OCC)c(C#N)c1C | 97
CCS(=O)(=O)CCSc1nc(-c2ccccc2)cc(-c2ccccc2)c1C#N | 100
O=C(O)c1oc2ccccc2c1CSc1ccccn1 | 90
CCCCC(=O)Nc1c(-c2cccs2)nc2ccccn12 | 100
CSc1ccc(CNC2CN3CCC2CC3)cc1 (centres undefined) | 96
O=C(NC1CCCCC1)c1noc2c1CCCCC2 | 99
O=C(OC1CCCC1)c1ccccc1C(F)(F)F | 102
Cc1c(OCc2ccccc2)ccc2c(C(F)(F)F)cc(=O)oc12 | 100
COc1cccc2sc(=NC(=O)CC34CC5CC(CC(C5)C3)C4)n(C)c12 | 101
O=C(Nc1ccccc1NC(=O)c1cccs1)c1ccc(C(F)(F)F)cc1 | 100
CCOC(=O)Cc1nc(-c2ccc(Cl)cc2)n[nH]1 | 92
C=CCn1c(=N)n(CCO)c2ccccc21 | 100
COc1ccccc1C(=O)Nc1ccccn1 | 100
CCOC(=O)N1CCN(C(=O)Cn2ncc3ccccc32)CC1 | 104
CCOC(=O)C1=C(c2cccs2)OC(N)=C(C#N)C1c1cccnc1 (centres undefined) | 100
CCC(=O)c1ccccc1OCC(=O)Nc1c(C)cccc1C | 100
CCN(CC)/C(=N/S(=O)(=O)c1ccc(Cl)cc1)c1ccccc1 | 100

Reprinted at random: 7 records from the list.
Molecule | VACV E9 pol inh
COc1ccccc1C(=O)Nc1ccccn1 | 100
CCS(=O)(=O)CCSc1nc(-c2ccccc2)cc(-c2ccccc2)c1C#N | 100
CCOC(=O)Cc1nc(-c2ccc(Cl)cc2)n[nH]1 | 92
O=C(Nc1ccccc1NC(=O)c1cccs1)c1ccc(C(F)(F)F)cc1 | 100
O=C(NC1CCCCC1)c1noc2c1CCCCC2 | 99
O=C(/C=C\c1ccc2c(c1)OCO2)OCn1nnc2ccccc2c1=O | 106
CC1=C(C(N)=O)C(c2ccccc2F)n2ncnc2N1 (centres undefined) | 82

(list continues)
Molecule | VACV E9 pol inh
O=C(NCc1ccco1)c1ccc2c(c1)NC(=O)C1CCCN21 (centres undefined) | 104
Cc1nnc(SCCCC(=O)c2ccc(C(C)(C)C)cc2)s1 | 102
O=c1[nH]c(-c2ccccc2)nc2ccsc12 | 87
NCC[C@@H](O)C(=O)N[C@@H]1C[C@H](N)[C@@H](O[C@H]2O[C@H](CN)[C@@H](O)[C@H](O)[C@H]2O)[C@H](O)[C@H]1O[C@H]1O[C@H](CO)[C@@H](O)[C@H](N)C1O (some centres undefined) | 103
Cc1cc2oc(=O)c3c(c2c(O)c1CN(C)C)CCCC3 | 101
Cc1cc2ccccc2c(=O)n1CC(=O)NCC(=O)NCC1COc2ccccc2O1 (centres undefined) | 76
CN(C)C(CNC(=O)c1cccs1)c1cccnc1 (centres undefined) | 99
CC(C)NC(=O)c1ccc(F)cc1 | 97
c1ccc(-c2cn3c(n2)SCC3)cc1 | 91
S=C(c1c[nH]c2ccccc12)N1CCCC1 | 100
O=C(c1cc(-c2ccc(Cl)cc2)n[nH]1)N1CCN(C(=O)c2ccco2)CC1 | 101
Cc1cccc(-c2nc3ccccc3n2CCC(C)C)c1 | 94
Cc1ccc(NC(=O)CC(NCc2cccnc2)C(=O)O)cc1C (centres undefined) | 84
CCOc1cc2[nH]c(=O)n(CCC(=O)NC3CCCCC3C)c(=O)c2cc1OCC (centres undefined) | 102
CCOC(=O)c1sc(NC(=O)CCOc2ccccc2)cc1C | 100
C=CCc1c(O)c(CC)cc2c(C)cc(=O)oc12 | 96
c1ccc2[nH]c(-c3nc4ccccc4o3)nc2c1 | 116
COc1ccc(C2C(C#N)=C(N)SC3C(=O)N(c4ccc(Br)cc4)C(=O)C32)cc1 (centres undefined) | 97
Cc1c(/C=N/n2cnnc2)[nH]n(-c2ccccc2)c1=O | 101
Nc1cc(OC(=O)c2ccccc2)nn1S(=O)(=O)c1ccccc1 | 88
CC(C)(C)c1ccc(NC(=O)N2CCCN(c3ccc(C(F)(F)F)cn3)CC2)cc1 | 101
O=C(COc1ncnc2ccccc12)NC(c1ccccc1)c1ccccc1 | 96
Cc1sc2ncnc(N(C)C)c2c1C | 104
O=C(CCCc1c[nH]c2ccccc12)N1CCCCCC1 | 95
Cc1ccc(C=Nn2nnnc2N)s1 | 98
CC1=C(C#N)C(c2ccccc2)C2=C(CC(c3ccccc3)CC2=O)N1 (centres undefined) | 97
O=C1Nc2ccc(Cl)cc2C(c2ccccc2)=NC1O (centres undefined) | 99
COC(=O)c1sc(C(C)(C)C)cc1CS(=O)(=O)c1ccccn1 | 99
NC(=O)C1CCN(c2ncc(C(F)(F)F)cc2Cl)CC1 | 92
COc1ccc(CC(=O)NCCSc2c[nH]c3ccccc23)cc1 | 95
C=CCSc1nc2c(cc1C#N)C(=O)CC(C)(C)C2 | 97
O=C1CC2(CCCC2)C(=O)N1c1ccc(I)cc1 | 104
N#CC(C(=O)Cc1ccccc1)c1ccc(Cl)cc1 (centres undefined) | 84
C/C(=N\O)c1ccc(-n2ccnc2)cc1 | 70
CCOC(=O)CSc1nnc(CNC(=O)c2cccs2)n1C | 102
Cn1nnnc1-c1ccco1 | 97
Fc1ccc(-c2csc(=Nc3ccccc3)n2Cc2cccnc2)cc1 | 100
N#CCNC(=O)c1cc2nc(-c3cccs3)cc(C(F)(F)F)n2n1 | 96
CC(C)[N+]1(C)C2CC[C@@H]1CC(OC(=O)C(CO)c1ccccc1)C2 (some centres undefined) | 99
O=C(Cc1ccc(-n2cccc2)cc1)NCCc1ccccc1 | 104

Part of the list above, as labelled records:
> N=c1c(C(N)=S)cnc2ccccn12
  VACV E9 pol inh: 101

> NC(CC(=O)O)c1cccc(O)c1 (centres undefined)
  VACV E9 pol inh: 100

> O=c1oc2ccc(NS(=O)(=O)c3ccccc3)cc2s1
  VACV E9 pol inh: 101

> C=CCOc1ccc(/C=C2\Oc3ccc(C(=O)OC)cc3C2=O)cc1
  VACV E9 pol inh: 98

More entries
Molecule | VACV E9 pol inh
C=CCN(C(=O)Cn1c(=O)n(Cc2ccco2)c(=O)c2cc(OC)c(OC)cc21)c1ccccc1 | 98
COC(=O)C(N=Cc1ccccc1)c1ccccc1 (centres undefined) | 105
CCN1N=C(C)C=C(C)n2c1nc1ccccc12 | 96
O=c1cc(Cc2nnc(SCc3c(F)cccc3Cl)n2-c2ccc(F)cc2)[nH]c(=O)[nH]1 | 103
COc1ccc(C(=O)Cc2cc3ccccc3oc2=O)c(OC)c1 | 100
O=S(=O)(c1ccc(F)cc1)N1CCCN(c2nccc(C(F)(F)F)n2)CC1 | 100
COc1cccc(C=NCCN2CCOCC2)c1O | 98
N#CC1C2CCC(C2)C1C(=O)c1ccccc1 (centres undefined) | 101
COc1ccc(C(=O)Nc2ccc(C)c(C)c2)cc1 | 97
CN1C2CCC1CC(NC(=O)CS(=O)(=O)c1ccc(F)cc1)C2 (centres undefined) | 102
Cc1ccc(OCCCn2c(=O)oc3ccccc32)cc1 | 95
COCCn1c(=NC(=O)c2ccccc2)sc2cc(NC(C)=O)ccc21 | 95
CN(O)/C=C1\C(=O)Nc2ccccc21 | 97
O=C(CCc1nc2ccccc2[nH]1)N1CCN(C2CCCCC2)CC1 | 100
CSc1cc(-c2ccc(F)cc2)nn1S(=O)(=O)c1cccc(C(F)(F)F)c1 | 101
Cc1cc(C(=O)OC(C)C(=O)Nc2cccc(Cl)c2)c2ccccc2n1 (centres undefined) | 101
Cc1n[nH]c(C)c1Nc1nc(-c2ccccc2)cs1 | 98
Cc1oc(C(C)(C)C)cc1-c1cc(N)n(-c2ccc(I)cc2)n1 | 101
O=C(NCc1ccccc1)c1cnc(N2CCCC2)nc1 | 105
CN(C(=O)CSc1ccc(Br)cc1)C1CCCCC1 | 102
Oc1cc(Cc2nc3ccccc3s2)c(O)cc1Cc1nc2ccccc2s1 | 100
COc1cc(OC)cc(C(=O)N/C(N)=N\c2nc3ccccc3s2)c1 | 100
O=C(CSc1ccccc1Cl)c1ccco1 | 94
CCn1c(/N=C(\C)c2cc(Cl)ccc2O)nc2ccccc21 | 100
Cc1ccccc1OCCCC(=O)Nc1cccc(C(F)(F)F)c1 | 100
CCn1c(SCC(=O)N2CCCc3ccccc32)nnc1-c1c[nH]c2ccccc12 | 104
O=c1[nH]c2ccccc2n1C1CCN(CCCC(c2ccc(F)cc2)c2ccc(F)cc2)CC1 | 100
Nc1ccccc1NC1=CC(=O)CC(c2ccccc2)C1 (centres undefined) | 100
NC1=NC(=O)/C(=C/c2ccc(I)o2)S1 | 97

A portion of the library (hit frequency here may not be typical).
